# Bead autofluor – counter-screen for toxin protease inhibitors: compound fluorescence. compound autofluorescence counterscreen, microsphere flow cytometry; stronger effect = higher value. fluorescence intensity (no concentration beside the values). 360,000 compounds, 3.1% hits;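 active = at least 3 SD above the mean of all compounds, about 16000 in these data; inconclusive = too few beads counted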;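 note: 100 nL of 1 mM stock went into each well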
# BJeLR viability – BJeLR cell viability loss. 300,000 compounds, 0.17% hits. inhibition, % (no concentration beside the values). BJeLR (HRASV12) viability, CellTiter-Glo ATP luminescence, 48 h; reference of the scale not given here;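 active = replicate mean above 50%; inconclusive = above 50% but judged a plate artefact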;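 note: 50 nL library stock added to about 25 µL; numbers are from one replicate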
# RN4220 kill – kills Staphylococcus aureus RN4220 | 330,000 compounds, 0.33% hits | inhibition, % (test concentration not listed) | S. aureus RN4220 growth, OD600, 16 h;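 active = z-score of -3 or lower and OD600 up to 0.18 on both plates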;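 note: plate controls were untreated cells for no effect and reference antibiotic for full effect; stock transfer was 100 nL into about 80 µL; one replicate is shown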
# PrP UTR inh – suppresses PrP 5' UTR mRNA reporter expression; cell-based PrP 5' UTR mRNA reporter, plate reader; inhibition, % (concentration not given with the values); 340,000 compounds, 0.35% hits;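 active = every replicate at 50% or more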;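 note: 0 = median of the neutral control wells; tested in H4 reporter cells; numbers are from one replicate; inactives centre near -14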
# Sa ugtP lethal – compounds lethal to S. aureus RN4220 ugtP deletion mutant; 330,000 compounds, 0.54% hits; OD600 growth, 16 h; some inactives read as strong as hits; growth inhibition, % (test concentration not listed);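 active = z-score under -3 and OD600 up to 0.15 on both plates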;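 note: plate controls were untreated wells for no effect and antibiotic for full effect; wells of about 80 µL received 100 nL stock; the first replicate is given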
# Mtb hypoxia rep – inhibitors of hypoxia-regulated fluorescent reporter in Mycobacterium tuberculosis; M. tuberculosis hypoxia-regulated fluorescent reporter, fluorescence; fluorescence inhibition, % (concentration not given with the values); 300,000 compounds, 0.1% hits;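 active = 35 to 45% if threefold the growth effect, above 45% if 1.5-fold the growth effect; inactive = the rest, general growth blockers included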;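 note: wells of about 50 µL received 100 nL stock; 0% = vehicle wells and 100% = reference inhibitor wells; whole bacteria with a GFP reporter of the hypoxia response; strong numbers were not always called active; many hits fall short of the cut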
# Mtb hypoxia rep growth – recorded beside Mtb hypoxia rep, whose call it bears; growth inhibition, %; measured here: M. tuberculosis growth (absorbance);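 0% = vehicle and 100% = reference antibiotic; read after six days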
# * = called active by the depositor; ? = inconclusive; . = no result given. Hits appear at their usual frequency (roughly 3.9% active in at least one column).
structure | Mtb hypoxia rep growth | Bead autofluor | RN4220 kill | Mtb hypoxia rep | BJeLR viability | Sa ugtP lethal | PrP UTR inh
O=C(CCNS(=O)(=O)c1cccs1)N1CCN(c2ccc(F)cc2)CC1 | 11 | 3657 | 1.5 | 15 | -9 | 11 | -25
Cc1cc(Cl)ccc1NC(=O)CN1C(=O)C(=O)N(C2CCCC2)C1=O | -4 | 2941 | 3.2 | -7 | . | 7 | -19
COc1ccc(OCCn2cc(/C(N)=N/O)c3ccccc32)cc1 | 1 | 8855 | 5.2 | -5 | 1 | 26 | -36
CC1CCCCN1S(=O)(=O)c1csc(C(N)=O)c1 (stereo not drawn) | -11 | 4961 | 6.0 | 5 | 6 | 11 | -5
O=C(CCC(=O)Nc1nnc(C2CCCCC2)s1)NCc1ccccc1 | -8 | ? | -3.4 | -5 | 7 | -1 | -22
COc1ccc(N=Cc2cc3c(cc2O)OC(N)=C(C#N)C3c2ccccc2)cc1 (stereo not drawn) | 4 | 2482 | 14 | 8 | 6 | 3 | -1
CC(/C=N\NC(=O)CN1CCN(Cc2ccccc2)CC1)=C\c1ccco1 | . | 3299 | . | . | -4 | . | -29
CCOC(=O)CSc1n[nH]c(NC(C)=O)n1 | 5 | 1957 | 1.5 | 0 | -2 | 1 | -21
COC(CNC(=O)c1cccc(-n2c(=S)[nH]c3cc(Cl)ccc3c2=O)c1)OC | 6 | 4419 | -0.6 | 8 | 7 | 2 | -6
COc1ccc(/C=N/NC(=O)CCSc2nc3ccccc3s2)cc1 | . | 2382 | . | . | 4 | . | -33
CC1(C)OC2OC(C(=O)N/N=C/c3cc(Br)ccc3O)C3OC(C)(C)OC3C2O1 (stereo not drawn) | . | 2066 | . | . | -2 | . | -68
CCOC(=O)c1c(C)n(C)c2cc(CN(C)C)c(O)c(S(=O)(=O)c3ccccc3)c12 | 19 | 4080 | 6.7 | 8 | 4 | 10 | -15
CN(C)S(=O)(=O)c1ccc(Oc2ccccc2)cc1 | 3 | 2918 | 4.4 | 10 | -1 | 13 | -22
COC(=O)CC1COc2ccccc2N1C(=O)c1ccc(Cl)cc1 (stereo not drawn) | 10 | 23189* | 5.0 | 10 | 24 | 0 | -9
CC(CC(=O)NCCc1ccccc1)=NNC(=O)COc1ccc(Br)cc1 | 1 | . | -1.9 | -9 | . | 5 | .
C=CCNc1nc(Nc2ccc(OC)cc2)nc(OC)n1 | 11 | 4214 | 2.4 | 4 | 1 | -5 | -18
CCOC(=O)Cc1cc(=O)n2[nH]c(-c3ccccc3)cc2n1 | 5 | 5728 | -1.1 | 9 | 19 | 10 | -34
CCOC(=O)c1c(C)[nH]c(C)c1S(=O)(=O)NCC1CCN(Cc2ccc(C)cc2)CC1 | 1 | 8043 | -0.7 | 5 | 9 | 13 | -28
Cc1ccc(F)cc1NC(=O)Cc1nn(C)c(=O)c2ccccc12 | . | 2978 | 3.1 | . | 13 | 3 | -6
COc1ccc(NC2CCCN(C(=O)c3ccc(CSC)o3)C2)cc1OC (stereo not drawn) | 8 | 4641 | 3.3 | 3 | 2 | 5 | -20
O=C(COC(=O)c1ccc2c(c1)OCCO2)Nc1cc(Cl)ccc1Cl | 4 | 4336 | -0.7 | 0 | 2 | 3 | -7
COc1cc(C(=O)NCc2ccc(C(=O)NCC(OC)OC)cc2)cc(OC)c1OC | 3 | 4490 | 5.8 | 10 | 1 | 14 | -17
COc1ccccc1NC(=S)NNC(=O)c1ccccc1Br | 11 | 2721 | 1.0 | 7 | 3 | 6 | -34
Cc1ccc(NC(=O)C(c2ccccc2)C2CCCC2)cc1 (stereo not drawn) | -15 | 2634 | -18 | -16 | -5 | -11 | -24
CC(C)[C@H](NC(=O)N1CCn2c1nc1ccccc12)C(=O)NCc1ccc(F)cc1 | 9 | 5897 | -0.7 | -4 | -12 | -4 | -1
Cc1ccccc1CCNC(=O)Cn1nc(C)c2c(C)n(-c3ccccc3)nc2c1=O | 5 | 7186 | 0.5 | 5 | 3 | 1 | 6
O=C(CCCOc1ccccc1)N1CCN(S(=O)(=O)c2cccs2)CC1 | . | 2370 | 1.3 | . | 2 | -4 | -46
CCc1c(C)nc(SCC(=O)Nc2nc(-c3ccc(OC)cc3)cs2)[nH]c1=O | 9 | 4143 | -1.2 | 0 | -5 | 27 | -18
Cc1cccc(/C=N\Nc2nnc(-c3ccccc3)c(=O)[nH]2)c1 | . | 2837 | . | . | 0 | . | -44
COc1ccc(NC(=O)CC2Oc3ccccc3NC2=O)cc1 (stereo not drawn) | . | 5215 | 4.6 | . | 1 | 4 | -22
Cc1nc2ccc(S(=O)(=O)NC(C(=O)N3CCCC3)C(C)C)cc2s1 (stereo not drawn) | . | 5458 | 3.7 | . | 7 | -7 | -46
O=C(N/N=C/c1ccc[nH]1)c1ccccc1[N+](=O)[O-] | . | 2580 | . | . | 0 | . | -19
Cc1ccc(-c2cc(C(=O)N/N=C/c3ccccc3)n[nH]2)o1 | . | 5282 | . | . | 3 | . | -32
N/C(=N\OC(=O)c1ccc(Cl)c([N+](=O)[O-])c1)c1ccccc1 | . | 3228 | . | . | -3 | . | -33
Cc1ccc2nc(NC(=O)c3ccc(Cn4cc(Cl)cn4)o3)sc2c1 | 8 | 4146 | -4.2 | 14 | -6 | -6 | -14
CSc1nnc(-c2ccccc2N=Cc2c(C)[nH]n(-c3ccccc3)c2=O)c(=O)[nH]1 | 14 | 3267 | -5.7 | 3 | 7 | -8 | -28
CCOc1cccc(-c2nnc3sc(COc4ccc(Cl)cc4)nn23)c1 | . | 2660 | 0.9 | . | -1 | -2 | -8
COc1ccccc1CCc1nnc(CCC(=O)NC(C)Cc2ccsc2)o1 (stereo not drawn) | 5 | 3232 | 11 | 2 | 26 | 4 | 7
N#Cc1cn(-c2ccccc2)nc1C(=O)c1ccccc1 | 9 | 2967 | 5.2 | 6 | 15 | -4 | -24
COc1ccc(C(=O)NC(C)CCc2ccccc2)cc1 (stereo not drawn) | . | 3303 | 3.7 | . | -8 | 9 | -18
COc1ccc(NC(=O)c2ccco2)c(OC)c1 | 2 | 2846 | 3.1 | -8 | -9 | -5 | -89
O=C(c1c(F)cccc1Cl)N1CCN(S(=O)(=O)c2ccc3c(c2)OCCCO3)CC1 | -5 | 5519 | 6.1 | 3 | 4 | 7 | -5
CCOC(=O)c1ccc(-n2c(CN(CC)CC)nc3ccc([N+](=O)[O-])cc3c2=O)cc1 | 7 | 4478 | 4.7 | -4 | -3 | 14 | -18
C=CCNC(=S)Nc1ccc(Cl)cc1 | 0 | 3515 | 2.7 | 9 | 5 | 3 | -21
Cc1cccc(CN2CCc3c(OCC(=O)NCc4ccco4)cccc3C2=O)c1 | 4 | 2270 | -1.8 | -13 | 13 | 4 | -24
Cc1ccc(S(=O)(=O)N2CCC3(CC2)OCCO3)cc1 | 2 | 4335 | 0.5 | 9 | 1 | 5 | -28
COc1cccc(CNCCNC(=O)c2nonc2N)c1 | -1 | 24154* | -2.8 | -8 | -2 | -1 | 5
CCN(CC)c1nc(-c2ccccc2)nc2c1sc(=S)n2CC | 5 | 4015 | 27 | 9 | 17 | 2 | -24
CCC(CC)C(=O)NC1CCSC1=O (stereo not drawn) | 7 | 3410 | 3.8 | 8 | -2 | 4 | 0
Cc1nccn1CCOc1ccccc1Cl | 9 | 3600 | -1.3 | -1 | -3 | 2 | -33
c1cncc(N=c2scc(-c3cccc4ccccc34)n2CCCn2ccnc2)c1 | 1 | 2638 | 0.2 | -9 | -6 | -9 | -13
N#Cc1c(NC(=O)C2CCCO2)sc2c1CCCCCC2 (stereo not drawn) | 10 | 10766 | 4.8 | 9 | 25 | -8 | -41
COc1ccc(C2c3cc(OC)c(OC)cc3CCN2S(C)(=O)=O)cc1OC (stereo not drawn) | 1 | 3741 | 5.6 | 6 | . | 3 | -3
N#CCCN(Cc1cccnc1)C(=O)Nc1ccccc1 | 6 | 4143 | 1.6 | 2 | -5 | 0 | 0
CNC(=O)COC(=O)c1cccc(S(=O)(=O)N2CCN(c3ccc(F)cc3)CC2)c1 | -2 | 4832 | 0.5 | 6 | 1 | 4 | -10
CCOc1ccccc1NC(=S)N1C2CCC1CC(NC(=O)NC13CC4CC(CC(C4)C1)C3)C2 (stereo not drawn) | 11 | 10207 | -0.3 | 2 | 0 | 8 | -7
Cc1cccc(NC(=O)Nc2cccc(C)n2)n1 | . | 3283 | 7.0 | . | -15 | 0 | -27
O=C(NC(=S)N1CCN(c2ccc(Cl)cc2[N+](=O)[O-])CC1)c1cccs1 | . | 10398 | . | . | 10 | . | -3
CCN(C(=O)c1cccc(S(=O)(=O)N(C)C)c1)C12CC3CC(CC(C3)C1)C2 | 3 | 3525 | 1.1 | 10 | 9 | 3 | -3
Cc1ccc(C(=O)C2=C(O)C(=O)N(Cc3ccco3)C2c2ccc(N(C)C)cc2)o1 (stereo not drawn) | 9 | 5751 | 22 | -6 | -8 | -12 | -4

# (further entries)
structure | Mtb hypoxia rep growth | Bead autofluor | RN4220 kill | Mtb hypoxia rep | BJeLR viability | Sa ugtP lethal | PrP UTR inh
CC1(C)Cc2nc3oc4c(=S)nc[nH]c4c3cc2CO1 | 9 | 5839 | 3.8 | 5 | -7 | 4 | -34
CCOC(=O)c1c2c([nH]c(=S)c1C#N)CCCC2 | -3 | ? | 5.2 | -1 | -18 | -1 | -23
COc1cc(C=Nn2c(-c3ccccc3)n[nH]c2=S)cc(OC)c1O | 4 | . | 2.6 | 11 | . | 6 | .
Cc1ncc2c(n1)NC(=O)NC2 | 9 | 2807 | 1.6 | 16 | . | 5 | -16
COc1ccc(C(=O)C2CCCN(C(=O)C3CCOCC3)C2)c(C)c1 (stereo not drawn) | 8 | 2754 | 2.6 | 14 | -2 | 7 | -14
COc1ccccc1-n1cc([C@@H]2C[C@H]3CN(c4ccccc4)C(=O)[C@]34CCCN24)cn1 | 4 | 28945* | 5.8 | -2 | 2 | 4 | -11
CCc1ccc2[nH]c(=O)c(C(c3nnnn3Cc3ccco3)N3CCC(C)CC3)cc2c1 (stereo not drawn) | 9 | 10511 | 7.2 | 7 | -5 | -8 | -26
O=C1c2cccc(OCc3ccc(F)cc3)c2CCN1Cc1ccc(F)cc1 | -2 | 2709 | -11 | 0 | -8 | 6 | -14
CC(=O)c1ccc(NC(=O)c2ccc(N3CCCC3=O)cc2)cc1 | -1 | 7344 | 4.3 | 6 | . | 1 | -22

# 14 compounds already listed, arranged by length of the SMILES, highest first.
structure | Mtb hypoxia rep growth | Bead autofluor | RN4220 kill | Mtb hypoxia rep | BJeLR viability | Sa ugtP lethal | PrP UTR inh
COc1ccccc1-n1cc([C@@H]2C[C@H]3CN(c4ccccc4)C(=O)[C@]34CCCN24)cn1 | 4 | 28945* | 5.8 | -2 | 2 | 4 | -11
CCOc1ccccc1NC(=S)N1C2CCC1CC(NC(=O)NC13CC4CC(CC(C4)C1)C3)C2 (stereo not drawn) | 11 | 10207 | -0.3 | 2 | 0 | 8 | -7
Cc1ccc(C(=O)C2=C(O)C(=O)N(Cc3ccco3)C2c2ccc(N(C)C)cc2)o1 (stereo not drawn) | 9 | 5751 | 22 | -6 | -8 | -12 | -4
CNC(=O)COC(=O)c1cccc(S(=O)(=O)N2CCN(c3ccc(F)cc3)CC2)c1 | -2 | 4832 | 0.5 | 6 | 1 | 4 | -10
O=C(NC(=S)N1CCN(c2ccc(Cl)cc2[N+](=O)[O-])CC1)c1cccs1 | . | 10398 | . | . | 10 | . | -3
COc1ccc(C2c3cc(OC)c(OC)cc3CCN2S(C)(=O)=O)cc1OC (stereo not drawn) | 1 | 3741 | 5.6 | 6 | . | 3 | -3
COc1cc(C=Nn2c(-c3ccccc3)n[nH]c2=S)cc(OC)c1O | 4 | . | 2.6 | 11 | . | 6 | .
CC(=O)c1ccc(NC(=O)c2ccc(N3CCCC3=O)cc2)cc1 | -1 | 7344 | 4.3 | 6 | . | 1 | -22
CC1(C)Cc2nc3oc4c(=S)nc[nH]c4c3cc2CO1 | 9 | 5839 | 3.8 | 5 | -7 | 4 | -34
CCOC(=O)c1c2c([nH]c(=S)c1C#N)CCCC2 | -3 | ? | 5.2 | -1 | -18 | -1 | -23
N#Cc1c(NC(=O)C2CCCO2)sc2c1CCCCCC2 (stereo not drawn) | 10 | 10766 | 4.8 | 9 | 25 | -8 | -41
N#CCCN(Cc1cccnc1)C(=O)Nc1ccccc1 | 6 | 4143 | 1.6 | 2 | -5 | 0 | 0
Cc1cccc(NC(=O)Nc2cccc(C)n2)n1 | . | 3283 | 7.0 | . | -15 | 0 | -27
Cc1ncc2c(n1)NC(=O)NC2 | 9 | 2807 | 1.6 | 16 | . | 5 | -16

# Source: PubChem BioAssay (several laboratories)
